From PubChem BioAssay
Lassa entry inh: qHTS for Inhibitors of binding or entry into cells for Lassa Virus. Lassa virus pseudotype entry inhibition, cell reporter; control for the full effect not named in the record. Potency, µM (top dose mostly 37.9 µM), inactives show at the highest dose activity change, negative = inhibition, actives largely listed as inhibitors. 300,000 tested, 1.2% active. AID 540256, 2011; active means well fitted inhibition curve with a large enough effect; inconclusive means small, poorly fitted or top-dose-only effect, or effect the other way; inactive means flat fitted curve, though single readings scatter; tested in HEK293 cells; further: on the % scale 0 is the no-effect control and ±100 the full control effect; nearly all actives have a fitted effect of over 50% in size; luciferase read-out
SARS PLP yeast: qHTS of Yeast-based Assay for SARS-CoV PLP. S. cerevisiae expressing SARS-CoV PLpro, growth rescue; control for the full effect not named in the record. Potency, µM (highest dose often 32.9 µM), for inactives: at the top dose activity, positive = growth rescue. 330,000 tested, 0.19% active. AID 485353, 2010; further: 0% is about no effect; nearly all actives have a fitted effect of over 55% in size; growth read by luminescence after 48 h
RE007 growth inh: qHTS Assay for Inhibitors of the HIV-1 protein Vpr; S. pombe RE007 Vpr strain, BacTiter-Glo ATP luminescence, 24 h; control for the full effect not named in the record; Potency, µM (titrated, usually from 92.2 µM), for inactives: at the highest dose activity change, negative = less growth; 360,000 tested, 0.21% active; active = well fitted falling curve with a large enough effect; inconclusive = small, poorly fitted or top-dose-only effect; inactive = no such curve, though single readings can be large or run the other way;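 further: on the % scale 0 is the no-effect control and ±100 the full control effect; nearly all actives have a fitted effect of over 50% in size; the assay follows cell death caused by Vpr and the record does not say whether a fall means rescue or toxicity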
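Fission yeast RE007 carrying one integrated HIV-1 vpr copy, seeded at OD 0.01 in PMG+AL medium with 23 nL pinned compound. Grown 24 h at 30 degrees; viability read by BacTiter-Glo luminescence after 5 min.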
Cruzain inh noDet: qHTS Assay for Promiscuous and Specific Inhibitors of Cruzain (without detergent). purified cruzain, Z-FR-AMC fluorescence, no detergent. Potency, µM, for the others: max response, negative = inhibition, hits mostly inhibitors. 200,000 tested, 2.3% active; active means well fitted curve in the direction sought with a large enough effect; inconclusive means small, poorly fitted or top-dose-only effect, or another doubt; inactive means no such curve, though single readings can be large; an effect the other way counts as inactive or inconclusive;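 further: plate controls were enzyme without inhibitor for no effect and buffer without enzyme for full effect; nearly all actives have a fitted effect of over 40% in size; top concentration of the series not given in the record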
Target sequence (P25779 123-467 limits assumed): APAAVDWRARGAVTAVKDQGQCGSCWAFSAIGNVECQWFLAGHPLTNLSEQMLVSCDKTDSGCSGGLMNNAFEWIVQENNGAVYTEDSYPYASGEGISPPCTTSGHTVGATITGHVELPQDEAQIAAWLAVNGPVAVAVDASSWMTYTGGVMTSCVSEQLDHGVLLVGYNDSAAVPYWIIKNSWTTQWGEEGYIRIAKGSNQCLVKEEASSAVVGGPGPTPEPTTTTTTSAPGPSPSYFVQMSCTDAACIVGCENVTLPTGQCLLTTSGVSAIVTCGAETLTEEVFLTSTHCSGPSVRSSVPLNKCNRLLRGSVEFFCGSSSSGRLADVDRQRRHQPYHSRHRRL
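Detergent-free condition (0.00005% Triton X-100) in acetate buffer pH 5.5 with DTT. 1.5 nM enzyme and compound were pre-mixed 15 min, then 2 uM Z-FR-AMC substrate added; reaction progress from fluorescence change between first and third reads (60 s).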
2A StopGo: High Throughput Screening for Foot and Mouth Disease Virus Antivirals; 410,000 tested, 1.2% active; Potency, µM (series often up to 57.9 µM), inactives show at the top dose signal change, negative = less light; human cells with a luciferase reporter of 2A StopGo recoding; control for the full effect not named in the record; active = well fitted falling curve with a large enough effect; inconclusive = small, poorly fitted or top-dose-only effect; inactive = no such curve, though single readings can be large or run the other way; tested in HEK293T cells; further: on the % scale 0 is the no-effect control and ±100 the full control effect; nearly all actives have a fitted effect of over 45% in size; luciferase light after 4 h
Cruzain Triton: qHTS Assay for Promiscuous and Specific Inhibitors of Cruzain (with detergent). purified cruzain, Z-FR-AMC fluorescence, 0.01% Triton. Cruzipain (Trypanosoma cruzi), P25779. Potency, µM, for the others: max response, negative = inhibition, usual class: inhibitors. 200,000 tested, 0.43% active. AID 1478, 2009; active means well fitted curve in the direction sought with a large enough effect; inconclusive means small, poorly fitted or top-dose-only effect, or another doubt; inactive means no such curve, though single readings can be large; an effect the other way counts as inactive or inconclusive;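 further: plate controls were neutral wells for no effect and buffer without enzyme for full effect; nearly all actives have a fitted effect of over 40% in size; top concentration of the series not given in the record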
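In this qHTS format, compounds are incubated with 1.5 nM cruzain for 15 min at room temperature before 2 uM Z-FR-AMC is added. Release of AMC is followed at 360/450 nm, and progress is taken as the 60 s fluorescence difference.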
MARV entry inh: qHTS for inhibitors of binding or entry into cells for Marburg Virus; Marburg virus pseudotyped entry inhibition, cell reporter; control for the full effect not named in the record; about a third of the inactives were read at about 46 µM; Potency, µM (titrated, usually from 37.8 µM), for inactives: at the highest dose activity change, negative = inhibition, hits mostly inhibitors; 300,000 tested, 1.8% active; active = well fitted inhibition curve with a large enough effect; inconclusive = small, poorly fitted or top-dose-only effect, or effect the other way; inactive = flat fitted curve, though single readings scatter; tested in HEK293 cells; about a fifth of its hits are not listed in these tables; further: on the % scale 0 is the no-effect control and ±100 the full control effect; luciferase read-out
NS1 function inh: qHTS Assay for Inhibitors of Influenza NS1 Protein Function. 270,000 tested, 0.4% active. AID 2326, 2010. Potency, µM (doses to about 46.1 µM), without a hit: at the highest dose activity, positive = more growth. S. cerevisiae slowed by influenza A NS1, growth recovery by OD600; further: actives are rising curves; nearly all actives have a fitted effect of over 50% in size
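Compounds were scored for reversing the slow growth caused by influenza A NS1 in S. cerevisiae, measured by optical density at 600 nm. Assay medium contained 2% galactose at pH 6.0; NS1-free yeast of the same strain were the positive control.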
The depositor's hits bear a star; u = inconclusive; x = not tested or not shown; & = joins results of further samples; [ ] = remark or other dose. Unless noted, the call rests on the fitted dose curve; in most records, active means well fitted rising curve with a large enough effect; inconclusive means small, poorly fitted or top-dose-only effect; inactive means no such curve, though single readings can be large or run the other way. Potency means the concentration at half of the fitted maximal effect. Hits appear at their usual frequency. About 4.5% of those tested had a hit in this group.

SMILES	Lassa entry inh	SARS PLP yeast	RE007 growth inh	Cruzain inh noDet	2A StopGo	Cruzain Triton	MARV entry inh	NS1 function inh
Cc1ccc(-n2nc3c(c2NC(=O)C(C)C)CS(=O)(=O)C3)cc1	x	5%	6%	x	-16%	x	x	-6%
O=C(NC(CC(=O)N1CCN(c2ccccc2O)CC1)c1ccccc1)c1ccccc1Cl (configuration not stated)	8%	-5%	0%	x	-27%	x	u	x
Cc1cc(Cl)ccc1NC(=O)CCCN1C(=O)CCC1=O	-17%	11%	-4%	-6%	12%	3.7%	8%	-10%
Cc1ccc(CSc2cn(CC(=O)N3CCCCCC3)c3ccccc23)cc1	8.9µM*	x	x	-18%	13%	-9.1%	x	x
COc1cccc(CC(NC(C)=O)C(=O)NC2CCN(c3nc(C)cc(C)c3C#N)CC2)c1OC (configuration not stated)	7%	-2%	-6%	u	-25%	-2.2%	-2%&-13%	-11%
CC[C@]12c3[nH]c4ccc(OC)cc4c3CCN1C(=O)C(CC(=O)NC(C)(C)C)C[C@@H]2C(=O)N1CCN(C(=O)c2ccco2)CC1 (some centres not stated)	x	10%	-12%	x	-12%	x	1%	x
Cc1ccc(NC(=O)CCCNC(=O)c2ccc(Cl)cc2)cc1S(=O)(=O)N1CCOCC1	16%	-2%	-2%	x	1%	x	-13%	x
Cc1ccc(Cl)cc1N1CCN(C(=O)CN2C(=O)COc3ccc(S(=O)(=O)N4CCOCC4)cc32)CC1	5%[46.1 µM]	x	x	u	u	0.3%	14%[46.1 µM]	x
COc1cc(C(=O)Nc2ccccc2C(=O)NCc2cccnc2)cc(OC)c1OC	x	1%	2%	x	-1%	x	u	-11%
COc1ccccc1OCCNC(=O)C(CCSC)NC(=O)c1ccccc1Cl (configuration not stated)	11%	-3%	-4%	x	-14%	x	-11%	x
CC(NC(=O)c1ccccc1)C(=O)N/N=C/c1cccc([N+](=O)[O-])c1 (configuration not stated)	14%[46.1 µM]	-1%	47%	x	7%	x	u	x
O=C(NC(=S)NCC1CCCO1)c1ccccc1F (configuration not stated)	x	1%	-1%	x	28%	x	x	8%
Cc1ccc(C(=O)C(C(=O)/C=C/c2ccccc2)=C2SCCCS2)cc1	22µM*	-4%	4%	25µM*	11µM*	-7.5%	u	u
Cc1ccnc(NC(=O)CCCc2ccc(N(CCCl)CCCl)cc2)n1	u	x	2%	x	-8%	x	u	x
CC(OC(=O)c1cccc(S(=O)(=O)N2CCCC2)c1)C(=O)c1ccccc1 (configuration not stated)	-5%	-5%	-4%	x	-11%	x	u	2%
Cc1cc(/C=C2\C(=O)NC(=S)N(C)C2=O)c(C)n1C1CCCCC1	15%	14%	-2%	3%	-2%	-2.3%	u	15%
COc1cccc(CNC(=O)Cc2ccc(NC(=O)C3=C(C)OCCS3)cc2)c1	x	3%	1%	x	10%	x	x	-2%
Cc1ccc2c(c1)N(CC(=O)NCCc1c[nH]c3ccccc13)C(=O)CO2	-16%[14.3 µM]	1%	8%	2%	-27%	0.3%	-29%	-4%
Cc1[nH]c(C)c(S(=O)(=O)N2CCN(c3cccc(Cl)c3)CC2)c1C(=O)N1CCCCC1	x	-6%	1%	x	-15%	x	x	9%
CC(C)(C)OC(=O)N1CCC(C(=O)N[C@@H](Cc2c[nH]c3ccccc23)C(=O)O)CC1	x	-1%	5%	x	-16%	x	x	-2%
CCOC(=O)C(CO)NC(=O)C1(NC(C)=O)CCCC1 (configuration not stated)	23%[46.1 µM]	x	8%	x	-15%	x	6%[46.1 µM]	x
CCOC(=O)N1CCN(C(=O)c2ccc3nc4cc(Cl)ccc4c(=O)n3c2)CC1	0%	x	7%	x	16%	x	-2%&-9%	10%
Cc1ccc(NC(=O)Cc2cn3ccsc3n2)nc1	11%	3%	4%	u	2%	2.2%	13%	6%
COc1ccc(NS(=O)(=O)c2cc(NC(=O)[C@@H](NC(=O)c3ccccc3)C(C)C)ccc2C)cc1	u	10%	5%	-26%	59%[activator]	-5.0%	u	u
CCOc1ccc(S(=O)(=O)/N=C(/Nc2ccc(C)c(S(=O)(=O)N3CCOCC3)c2)c2ccccc2)cc1	-21%	2%	12%	x	44%[activator]	x	-6%	x

(further entries)
SMILES	Lassa entry inh	SARS PLP yeast	RE007 growth inh	Cruzain inh noDet	2A StopGo	Cruzain Triton	MARV entry inh	NS1 function inh
O=C(CN1C(=O)c2ccccc2S1(=O)=O)NCCSCc1ccco1	7%	7%	14%	1%	37%[activator]	0.2%	29%&29%	8%
Cc1cc(C)nc(/N=C(\N)Nc2ccc(S(=O)(=O)Nc3nccc(C)n3)cc2)n1	-5%	0%	-14%	x	1%	x	6%[46.1 µM]	1%
NNc1ncnc2sc3c(c12)CCC3	-4%	-1%	3%	x	-26%	x	0%[46.1 µM]	x
O=C1NC(=O)C(Cc2ccccc2)C(=O)N1	22%[46.1 µM]	x	-3%	x	-4%	x	2%[46.1 µM]	x
CNC(=S)N/N=C/c1cc(Br)c(OCc2ccncc2)c(OC)c1	x	1%	4%	x	-18%	x	x	8%
Cc1c(N=Cc2c(O)n(C)c(=O)[nH]c2=O)c(=O)n(-c2ccccc2)n1C	x	1%	-2%	x	-7%	x	x	0%
Cc1cc(S(=O)(=O)N2CCC3(CC2)OCCO3)c(C)cc1Cl	1%	-3%	5%	x	2%	x	-1%	-2%
O=C(Cn1ccc([N+](=O)[O-])n1)NCc1cccs1	-1%	-10%	0%	-1%	12%	0.4%	-15%	16%
CCNC(=S)NNC(=O)C(c1ccccc1)c1ccccc1	u	10%	8%	0%	x	3.3%	4%	7%
CCOC(=O)Cc1csc(NC(=O)Nc2ccc(F)cc2)n1	u	-1%	-14%	x	u	x	u	-1%
CCN(CC)c1ccc(-c2nn3c(-c4ccccc4OC)nnc3s2)cc1	u	-18%	6%	29%	-9%	-9.1%	u	-69%
CC1(C)CC2CC(C)(CN2C(=O)c2cccs2)C1 (configuration not stated)	13%	-1%	-1%	7%	8%	4.1%	5%	1%
COc1ccc(Cn2c(O)c(C=Nc3ccccc3C(=O)O)c3ccccc3c2=O)cc1	u	0%	1%	x	1%	x	-21%[46.1 µM]	4%
COc1ccccc1C(=O)NCC(=O)OCC(=O)NNC(=O)c1ccc(Br)cc1	-12%	12%	-21%	x	9%	x	u	x
CN1CCN(c2nc3ccccc3nc2C(C#N)S(=O)(=O)c2ccccc2)CC1 (configuration not stated)	x	2%	9%	x	-3%	x	x	-3%
CCOc1ccc(S(=O)(=O)c2cn(CC)c3ccc(F)cc3c2=O)cc1	-19%[46.1 µM]	x	x	-16%	36%[activator]	-3.9%	-36%[46.1 µM]	x
COc1ccccc1CCC(=O)Nc1cccc(S(=O)(=O)N2CCCCCC2)c1	-5%	-4%	12%	x	8%	x	-12%	x
Cc1cccc(OCC(=O)N2CCOCC2)c1	15%	3%	3%	12%	30%[activator]	-0.8%	u	-11%
CC(C)C1(CCNC(=O)c2cccs2)CCOC(C)(C)C1 (configuration not stated)	x	1%	2%	x	21%	x	x	-3%
CCOC(=O)CN1C(=O)C(O)(CC(=O)c2cc(OC)ccc2OC)c2ccccc21 (configuration not stated)	-5%[46.1 µM]	x	x	3%	8%	-4.9%	16%[46.1 µM]	x
CN=C(SCc1ccccc1)c1c(O)n(C)c(=O)n(C)c1=O	1%	-3%	-15%	-11%	2%	0.6%	u	-84%
COCC(C)NC(=O)CCc1nnc(C2(c3ccc(Cl)cc3)CCC2)o1 (configuration not stated)	x	0%	-15%	x	55%[activator]	x	x	-4%
CC(C)(C)OC(=O)N[C@@H](Cc1ccccc1)C(=O)NCC1CCC(C(=O)N[C@@H](CCC(N)=O)C(=O)O)CC1 (some centres not stated)	11%[46.1 µM]	16%	-15%	x	-2%	x	9%[46.1 µM]	4%
COC(=O)[C@@H]1Cc2c([nH]c3ccccc23)C(C)(C)N1C(=O)CCl	7.9µM*	-2%	-10%	x	u	x	7.1µM*	1%
O=C(NCc1ccccc1OC(F)(F)F)C1CCC(=O)N(C2CC2)C1 (configuration not stated)	5%	3%	9%	x	-10%	x	27%	-2%

(listing goes on)
SMILES	Lassa entry inh	SARS PLP yeast	RE007 growth inh	Cruzain inh noDet	2A StopGo	Cruzain Triton	MARV entry inh	NS1 function inh
Cc1ccc(Oc2nc3c(c(=O)n(Cc4ccccc4Cl)c(=O)n3C)n2C)cc1C	17%[46.1 µM]	x	x	2%	-15%	-2.5%	0%[46.1 µM]	x
CCCOc1ccc(NC(=O)CNC(=O)c2cc(OC)cc(OC)c2)cc1OCCC	x	-1%	9%	x	-16%	x	x	16%
CCC(=O)Nc1nnc(-c2ccc(OC)cc2)o1	x	-1%	-4%	0%	-1%	3.5%	x	-46%
NS(=O)(=O)c1ccc(CNC(=S)NCc2ccc(F)cc2)cc1	3%	5%	0%	x	-18%	x	8%	-2%
Cc1ccc(S(=O)(=O)N(CC(=O)Nc2cccc(N(C)S(C)(=O)=O)c2)c2ccc(Cl)c(Cl)c2)cc1	u	-2%	-13%	u	x	-8.0%	16µM*	u
O=C(CSc1ncnc2sc3c(c12)CCCC3)c1ccco1	-27%	0%	-10%	-11%	-20%	-13%	u	-14%
OCCN1CCN(c2ncnc3nc[nH]c23)CC1	x	2%	1%	-10%	-19%	-4.2%	-2%	-105%
CCC(=O)NC(=S)Nc1ccc(S(=O)(=O)NC(C)C)cc1	-25%	7%	6%	11%	41%[activator]	-4.4%	-4%	12%
CN(C(=O)CCN1C(=O)c2ccccc2C1=O)C1CCCCC1	4%	4%	2%	-7%	26%	-1.4%	-4%	-2%
COc1ccc(S(=O)(=O)N(Cc2ccccc2)Cc2nc(-c3ccccc3)no2)cc1	u	0%	-1%	-17%	u	2.6%	-9%	-1%
COc1ccc(/C=C/C(=O)NC(=S)NCCc2ccc(OC)c(OC)c2)cc1	-17%	0%	-2%	0%	u	-1.0%	u	0%
